# Assay outcomes: PubChem, several laboratories
# Arbovirus inh: arbovirus infection inhibition. inhibition, % at 10 µM. arbovirus infection cell-based antiviral screen. AID 1251. 200,000 compounds, 0.37% hits;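 active = inhibition from about 30%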;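 note: bluetongue infection of BSR cells; cell survival read as ATP light after 72 h; 0% = infected wells without compound and 100% = uninfected wells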
# Mtb growth: M. tuberculosis H37Rv growth inhibitors, H37Rv strain (AID 1626); 220,000 compounds, 0.95% hits; M. tuberculosis H37Rv growth inhibition; higher % means a stronger effect; inhibition, % at 10 µM, or IC50 in µM where a hit was titrated;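 active = confirmed in a dose series; inconclusive = inhibition above 80% but not taken into the dose series; inactive = below 80% or under 30% at every dose of the series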;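 note: bacteria incubated seven days before Alamar blue readout; 0% = bacteria only wells and 100% = bacteria with antibiotic wells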
# Mtb bLac sens: beta-lactam sensitization of Mtb H37Rv; M. tuberculosis H37Rv growth with meropenem, percent inhibition; hits of this screen are not shown here; inhibition, % at 25 µM; 330,000 compounds, 0.27% hits; AID 434955;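 active = about 74% or more and at least 40 points above the plate without the antibiotic, then above 30% in a dose series; inconclusive = first-round hits that could not be retested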;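 note: growth measured after seven days incubation then overnight dye step; 0% = bacteria only wells and 100% = bacteria with antibiotic; twin plates without the antibiotic show which effects depend on it; some results filed as inactive read as strong as hits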
# YopH PTP inh: blocks Yersinia enterocolitica YopH tyrosine phosphatase; fluorescence Ex485/Em525; inhibition, %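 (about 10 µM by stock and volumes)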; 140,000 compounds, 0.16% hits; AID 898;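 active = inhibition of 50% or more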;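 note: controls were vehicle for no effect and minimum signal wells for full effect; inactives centre near -20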
# RecA intein inh: blocks M. tuberculosis RecA intein splicing; P9WHJ3; cell-free RecA intein splicing, fluorescence; inhibition, %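 (about 9 µM by stock and volumes)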; 290,000 compounds, 0.75% hits; AID 2221; in the data active = inhibition above about 30%; inconclusive = no clear call, values can overlap the other calls;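 note: 0% = vehicle wells and 100% = reference inhibitor control wells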
# Target sequence (P9WHJ3 whole entry, looked up): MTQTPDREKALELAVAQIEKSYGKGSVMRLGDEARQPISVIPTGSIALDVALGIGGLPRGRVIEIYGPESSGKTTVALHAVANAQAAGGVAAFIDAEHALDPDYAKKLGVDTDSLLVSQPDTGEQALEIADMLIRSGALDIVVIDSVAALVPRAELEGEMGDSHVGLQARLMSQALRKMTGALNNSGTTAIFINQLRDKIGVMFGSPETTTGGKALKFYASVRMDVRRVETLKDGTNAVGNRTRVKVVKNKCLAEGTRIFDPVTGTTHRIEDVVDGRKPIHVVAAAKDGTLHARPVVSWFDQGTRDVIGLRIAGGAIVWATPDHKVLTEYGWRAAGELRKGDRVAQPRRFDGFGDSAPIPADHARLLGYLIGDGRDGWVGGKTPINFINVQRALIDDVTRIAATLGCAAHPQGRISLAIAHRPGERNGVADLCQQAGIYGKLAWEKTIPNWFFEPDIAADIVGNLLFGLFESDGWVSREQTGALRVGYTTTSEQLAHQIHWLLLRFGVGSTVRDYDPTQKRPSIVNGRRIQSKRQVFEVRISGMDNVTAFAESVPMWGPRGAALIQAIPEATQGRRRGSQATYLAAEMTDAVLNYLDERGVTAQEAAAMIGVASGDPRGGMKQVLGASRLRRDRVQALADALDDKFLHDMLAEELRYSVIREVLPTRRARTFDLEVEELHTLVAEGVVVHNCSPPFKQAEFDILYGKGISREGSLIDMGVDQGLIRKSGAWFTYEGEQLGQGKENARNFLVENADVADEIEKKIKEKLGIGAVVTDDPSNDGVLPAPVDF
# Numbers without * were called inactive; ? = inconclusive; / = no result given.
SMILES,Arbovirus inh,Mtb growth,Mtb bLac sens,YopH PTP inh,RecA intein inh
COc1cccc(/C=C/C(=O)NCC2CCCCC2)c1,/,/,-7,/,8.1
Cc1cc([N+](=O)[O-])ccc1NCc1cccc([N+](=O)[O-])c1,6,2%,13,-10,2.7
O=S(=O)(Nc1ccc(S(=O)(=O)N2CCCC2)cc1)c1ccc(F)cc1,/,/,-3,/,4.3
COc1ccc(CCN2C(=O)NC(NS(=O)(=O)c3ccccc3)(C(F)(F)F)C2=O)cc1OC (stereo not given),/,/,0,/,2.0
CCOC(=O)N/N=C\c1ccc(OC/C=C/c2ccccc2)cc1,/,/,4,/,1.3
CC(C)Nc1ccc(C(CC(N)=O)NC(=O)Cc2ccc(Br)cc2)cc1[N+](=O)[O-] (stereo not given),/,-4%,-6,/,0.3
O=C(CCN1C(=O)c2cccc3cccc(c23)C1=O)N1CCN(c2ccccc2F)CC1,-7,5%,4,/,-2.3
O=C(Cc1cccs1)Nc1nc2ccccc2s1,6,-4%,-5,-40,-2.5
COC(=O)C1=C(C)OC(N)=C(C#N)C1c1c(C)nn(-c2ccccc2)c1Cl (stereo not given),0,-4%,-3,-7,5.1
Oc1ccc(CN2CCN(c3ccccc3)CC2)c2cccnc12,9,-5%,24,-2,-0.9
Clc1ccc(-c2nc(-c3ccncc3)no2)c(Cl)c1,/,/,-11,/,1.1
N#Cc1c(-c2cccs2)nc(SCC(=O)c2cccs2)[nH]c1=O,25,-17%,-9,-22,2.9

# Five entries from above in another layout:
# Each structure is followed by: Arbovirus inh	Mtb growth	Mtb bLac sens	YopH PTP inh	RecA intein inh
CCOC(=O)N/N=C\c1ccc(OC/C=C/c2ccccc2)cc1
→ /	/	4	/	1.3
CC(C)Nc1ccc(C(CC(N)=O)NC(=O)Cc2ccc(Br)cc2)cc1[N+](=O)[O-] (stereo not given)
→ /	-4%	-6	/	0.3
O=C(CCN1C(=O)c2cccc3cccc(c23)C1=O)N1CCN(c2ccccc2F)CC1
→ -7	5%	4	/	-2.3
O=C(Cc1cccs1)Nc1nc2ccccc2s1
→ 6	-4%	-5	-40	-2.5
COC(=O)C1=C(C)OC(N)=C(C#N)C1c1c(C)nn(-c2ccccc2)c1Cl (stereo not given)
→ 0	-4%	-3	-7	5.1

# (further entries)
SMILES,Arbovirus inh,Mtb growth,Mtb bLac sens,YopH PTP inh,RecA intein inh
CC1C/C(=N\Nc2ccc(S(N)(=O)=O)cc2[N+](=O)[O-])CC(C)(C)C1 (stereo not given),-5,7%,2,-18,1.2
Cc1cc(C)c(C(N)=O)c(NC(=O)Nc2ccccc2Cl)n1,2,-1%,4,-28,-0.3
COc1ccc(OC)c(C(=O)c2ccc(C(=O)Nc3ccc4ccccc4c3)cc2)c1,-10,1%,3,-31,2.0
Clc1ccc(-c2nnc3n2-c2ccccc2SC3)cc1,/,-2%,36,/,4.3
COc1cc2cc(C(=O)Nc3ccc4c(c3)OCCO4)[nH]c2cc1OC,/,/,14,/,7.3
COc1ccc(F)cc1S(=O)(=O)NCc1cc(=O)n(C)c(=O)n1C,/,/,-5,/,2.0
Cc1cccc(/C=C2\CCC(=C3SCCCS3)C2=O)c1,-1,5%,64,-28,-2.5
COc1ccc(N(CC(=O)Nc2ccc(OC)cc2OC)S(=O)(=O)c2ccccc2)cc1,-23,-1%,-5,/,3.7
CC(=O)OCC1(C)CN(c2ccccc2)N(C(=O)c2ccc(C(C)(C)C)cc2)C1=O (stereo not given),-25,27%,/,/,12
O=C(Nc1ccc(-c2cn3c(n2)SCC3)cc1)c1ccc2ccccc2n1,-14,12%,57,/,-0.6
COc1ccc(-n2c(-c3ccccc3)nc3ccccc3c2=O)cc1,/,0%,1,/,1.2
Cc1ccc(C(=O)NNC(=O)CSc2nnc(-c3ccncc3)n2C)cc1,2,-1%,-6,8,-3.5

# A stretch of the results above, for reference:
SMILES,Arbovirus inh,Mtb growth,Mtb bLac sens,YopH PTP inh,RecA intein inh
COc1ccc(-n2c(-c3ccccc3)nc3ccccc3c2=O)cc1,/,0%,1,/,1.2
Cc1ccc(C(=O)NNC(=O)CSc2nnc(-c3ccncc3)n2C)cc1,2,-1%,-6,8,-3.5

# New compounds follow:
SMILES,Arbovirus inh,Mtb growth,Mtb bLac sens,YopH PTP inh,RecA intein inh
CC/C(C)=N/Oc1nc(C)cc(C)n1,/,-3%,-4,/,/
CCCCNC(=S)NNC(=O)CCn1nc(C)c(Br)c1C,-1,2%,-14,-6,-0.2
O=C1NC(=O)c2c(NC(=O)C3CCCO3)cccc21 (stereo not given),-7,-10%,4,-4,1.4
Cc1cc(C)c2nc(-c3ccccn3)cc(C(=O)Nc3cc(C)on3)c2c1,-7,10%,-5,-15,/
Oc1cccc(NC(=S)N=Nc2c(O)[nH]c3ccccc23)c1,/,4%,22,/,10
CC(=O)Nc1ccc(S(=O)(=O)NCCc2ccccc2)cc1,12,5%,-5,-83,-1.6
O=C(Nc1ccc(Cl)cn1)C1CCCN1S(=O)(=O)c1ccc(Cl)cc1 (stereo not given),-4,-4%,3,-50,3.1
COc1ccccc1OCC(=O)Nc1ccccn1,-4,-4%,-3,-26,4.7
CCC(C)CCCCCCCCCCC(=O)O (stereo not given),/,7%,-7,/,4.3
Cc1ccc(OCC(O)CNCc2ccccc2)cc1C (stereo not given),/,-13%,-10,/,1.2
CN(C)c1nc(NCc2ccccc2)nc(SCC(=O)Nc2ccccc2)n1,-3,-6%,12,-45,/
CCN(CC)S(=O)(=O)c1ccc(O)c(NC(=O)c2ccc(N3CCOCC3)c([N+](=O)[O-])c2)c1,11,-3%,5,-18,-1.6

# Following part.
SMILES,Arbovirus inh,Mtb growth,Mtb bLac sens,YopH PTP inh,RecA intein inh
CCOC(=O)/C(C#N)=C/c1cc2cc(C)c(C)cc2nc1Cl,/,-3%,5,/,1.8
N/C(=N\OC(=O)Cc1ccccc1[N+](=O)[O-])c1ccccn1,2,4%,4,/,-1.3
CCOC(=O)c1c(NC(=O)C2C3C=CC(CC3)C2C(=O)O)sc(C)c1C (stereo not given),-12,1%,14,-21,-1.0
CC(C)CNC(=S)NC1CCCC1,6,-11%,-3,-23,1.1
Cn1c(CC(=O)Nc2ccccc2)c(Sc2ccccc2)c2ccccc21,-14,1%,10,-30,/
O=C(CSc1nc(-c2ccccc2)c(-c2ccccc2)[nH]1)Nc1nccs1,-13,4%,1,-40,0.7
Cc1ccc(S(=O)(=O)CCC(=O)c2ccc(F)cc2)cc1,/,/,88,/,0.3
CC(C)C[C@H](NC(=O)C1(c2ccccc2)CCN(C(=O)OC(C)(C)C)CC1)C(=O)N1CCC[C@H]1C(=O)O,/,/,?,/,4.5
CC1CCN(S(=O)(=O)c2ccc3c(c2)N(CC(=O)NCCCN2CCCCC2)C(=O)CS3)CC1,/,/,1,/,1.1
Cc1cc(N2CCN(C(=O)OC(C)(C)C)CC2)n2ncnc2n1,5,3%,-5,-4,-1.2
CCOc1ccc(C(=O)C2CCN(CC(=O)Nc3nccs3)CC2)cc1,/,/,54,/,3.5
COc1ccc(CNC(=O)c2cncc(Br)c2)cc1,/,/,-1,/,-3.9

# An excerpt from above in order of heavy-atom count, smallest number first.
SMILES,Arbovirus inh,Mtb growth,Mtb bLac sens,YopH PTP inh,RecA intein inh
N/C(=N\OC(=O)Cc1ccccc1[N+](=O)[O-])c1ccccn1,2,4%,4,/,-1.3
CCOC(=O)c1c(NC(=O)C2C3C=CC(CC3)C2C(=O)O)sc(C)c1C (stereo not given),-12,1%,14,-21,-1.0
CC(C)Nc1ccc(C(CC(N)=O)NC(=O)Cc2ccc(Br)cc2)cc1[N+](=O)[O-] (stereo not given),/,-4%,-6,/,0.3

# The list continues.
smiles	Arbovirus inh	Mtb growth	Mtb bLac sens	YopH PTP inh	RecA intein inh
CC(NC(=O)NC1CCCCC1)c1ccc2c(c1)OCO2 (stereo not given)	-5	1%	-10	/	2.3
O=S(O)OC1CS(=O)(=O)CC1c1ccccc1 (stereo not given)	/	/	-3	/	2.0
Cc1ccc(S(=O)(=O)NC(=O)Nc2ccc(F)c(F)c2)cc1	/	/	6	/	0.8
CCOC(=O)CC1NC(=O)c2ccccc21 (stereo not given)	8	4%	7	1	/
CC(=O)N1CN(CCCn2ccnc2)Cc2c1sc1c2CCCC1	11	-5%	-4	-2	-0.6
O=C(NCc1cccs1)c1cc(C2CC2)on1	-6	12%	6	-29	0.3
CC(=O)Nc1c(S(=O)(=O)c2ccccc2)c2nc3ccccc3nc2n1Cc1ccccc1	2	-8%	-5	-25	0.9
CCN(CC)CCNC(=O)c1cn(CC)c2ccc(S(=O)(=O)N3CCc4ccccc4C3)cc2c1=O	/	/	-3	/	-2.6
Cc1nc2c(C(=O)NCc3ccccc3Cl)c[nH]n2c(=O)c1Cl	22	0%	-4	-29	0.5
COc1ccc(C(c2nnnn2Cc2cccs2)N2CCN(c3ccccc3F)CC2)cc1 (stereo not given)	2	14%	-2	-47	/

# More results.
smiles	Arbovirus inh	Mtb growth	Mtb bLac sens	YopH PTP inh	RecA intein inh
Nc1cccc(S(=O)(=O)c2ccc(N)c(N)c2)c1	1	-7%	-3	/	-1.7
CC(C)N(C)Cc1nnnn1CC(=O)NCc1cc(F)cc(C(F)(F)F)c1	/	/	11	/	0.0
CN(C)CCCNC(=O)c1ccc(Oc2ccccc2)cc1	-10	11%	-4	/	-0.3
Cc1ccc2occ(CN3CCN(Cc4ccccc4)CC3)c(=O)c2c1	4	/	-4	-16	0.9
COc1ccccc1NC(=S)N(Cc1ccc(C(=O)O)cc1)Cc1ccc(OC)c(OC)c1	3	7%	0	/	3.8
CC1=C(C#N)C(NC(=O)c2ccc(Cl)cc2)(C(F)(F)F)C(=O)N1 (stereo not given)	-5	-1%	3	-30	0.8
CCC(=O)c1ccc(N2CCOCC2)c(F)c1	-2	5%	-15	-5	-1.9
Cc1ncsc1C(=O)N1CCCC(C(=O)c2ccc3ccccc3c2)C1 (stereo not given)	/	/	4	/	-0.4
Cc1ccc(CNc2nc3ccccc3n3cnnc23)cc1	-7	-2%	0	-27	0.6
Cc1cc(C)n2nc(C(=O)NCc3ccccc3)cc2n1	-4	-9%	/	-46	0.6

# Other structures.
smiles	Arbovirus inh	Mtb growth	Mtb bLac sens	YopH PTP inh	RecA intein inh
C=C(C)c1cccc(C(C)(C)NC(=O)Nc2nnc(C(C)C)s2)c1	/	-8%	-14	/	-13
O=C(c1ccc(F)cc1)N1CCN=C1c1ccccc1	-1	-3%	-3	-39	-1.4
CSc1nnc(C(C)(C)C)c(=O)n1/N=C/c1ccc(C(C)C)cc1	/	3%	-4	/	0.8
O=C(COc1ccc([N+](=O)[O-])cc1)Nc1ccc(C(=O)NCc2cccnc2)cc1	9	-10%	-3	-18	-0.1
CCOc1cccc(/C=C(/C#N)c2nc3ccccc3[nH]2)c1OCC(=O)O	/	/	5	/	-1.9
CC(C)c1ccc2occ(-c3nn[nH]n3)c(=O)c2c1	-2	-4%	-4	-26	0.4
C1=CC2CC1CC2CN1CCN(Cc2ccccc2)CC1 (stereo not given)	-4	-4%	-20	4	0.0
N/C(Cc1cccc2ccccc12)=N\OC(=O)c1ccccc1F	/	/	8	/	26
CCN(CC(=O)NC1CCCCC1)S(=O)(=O)c1ccc(Cl)cc1	4	-2%	12	6	2.0
COC(=O)[C@@H](NC(=O)c1ccc(OC2CCN(Cc3ccccn3)CC2)cc1)C(C)C	-3	-3%	1	/	4.0

# Following part.
smiles	Arbovirus inh	Mtb growth	Mtb bLac sens	YopH PTP inh	RecA intein inh
CCCCN1C(=O)/C(=C/C=C2\N(C)c3ccccc3C2(C)C)SC1=S	0	1%	?	-27	0.9
CCOc1ccc(/C=C2/SC(=S)N(n3c(C)ccc3C)C2=O)cc1	23	3%	-5	3	-0.4
COc1c(Cl)cc(C(=O)Nc2ccc(Cl)cn2)cc1Cl	8	5%	-5	-8	1.4
CC1CCc2nc3ccccc3c(C(=O)OCC(=O)N3CCc4ccccc43)c2C1 (stereo not given)	-6	-2%	2	-34	-0.8
COc1ccccc1-n1ccnc(SCC(=O)NC2CCCCC2)c1=O	/	/	-12	/	0.1
O=C(CNc1cccc(S(=O)(=O)N2CCCCC2)c1)Nc1cccc(F)c1	/	/	-8	/	17
Cc1c(C(=O)Oc2ccc(Cl)cc2)n(C)oc1=O	/	-14%	-1	/	27
CCCOc1ccc(Cc2c(Cl)nc(SC)nc2OC)cc1	18	1%	2	-23	3.9
CC/C(=N\NC(=O)c1c[nH]c2ccccc12)c1cccs1	-2	-3%	13	-34	1.9
C#CCNC(=O)C1=C[C@@H](c2ccccc2)C[C@@H](OCCCCO)O1	/	-13%	-9	/	1.6
O=C(Nc1cccnc1Cl)c1cc(-c2ccc(Cl)cc2)on1	/	/	6	/	2.1
CCn1c(Cc2ccccc2)nnc1SCC(=O)Nc1nccs1	2	-10%	-10	8	1.0

# This is a subset (hit frequency here may not be typical).
